Screening data deposited in PubChem BioAssay by several laboratories.
CSC inhib = cancer stem cell inhibition; cancer stem cell-like cells viability, luminescence; 300,000 tested, 1.1% active; inhibition, % at 7.5 µM;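 active = mean at 75% or more and at least half the replicates too; inconclusive = mean and replicates disagree; tested in HMLE shEcad cells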;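 note: 0% = median of negative and 100% = median of positive control wells; the first replicate is given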
PABP FP inh = blocks human PABP binding to poly(A) RNA. P11940. fluorescence polarization. inhibition, % at 35 µM. 290,000 tested, 1% active. AID 2014;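 active = 50% or more with normal probe brightness, or confirmed in later tests; inconclusive = above 50% with abnormal brightness, or retests that disagree; inactive = below 50% or failed in later tests; about a fifth of its hits are not listed in these tables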;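 note: calls also rest on retests at 20 µM and on dose response follow-up; controls were probe without protein and protein plus probe with vehicle; some compounds called inactive have numbers as strong as hits; many hits fall short of the cut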
eIF4H inh = inhibitors of RNA binding by human eIF4H | eIF4H fluorescence polarization binding assay | 290,000 tested, 0.94% active | Q15056 | inhibition, % at 35 µM;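 active = 50% or more with normal probe brightness, or confirmed in later tests; inconclusive = above 50% with abnormal brightness, or retests that disagree; inactive = below 50% or failed in later tests; about a fifth of its hits are not listed in these tables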;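 note: calls also rest on retests at 20 µM and on dose response follow-up; 0% = protein and probe with vehicle and 100% = probe without protein; strong numbers were not always called active; many hits fall short of the cut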
Yeast UUG start = modulators of start codon recognition fidelity in yeast; S. cerevisiae UUG-firefly luciferase reporter, luminescence/redox ratio; 350,000 tested, 0.13% active; activity score, % at 18.7 µM;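 active = replicate mean at a twofold rise or more, about +100% in these data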;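 note: firefly luciferase made from a UUG start codon reports start codon fidelity; reporter light over untreated wells divided by growth signal over untreated wells; some hits fall short of that in this replicate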
MT1-MMP act inh = MT1-MMP (human) activation inhibition; HT1080 RFP-PRO-GFP cells, GFP/RFP ratio fluorescence, overnight; percent of plate control window, DMSO zero; GFP/RFP ratio change, % at 20 µM; 360,000 tested, 0.061% active; AID 651647;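 active = GFP/RFP ratio change of at least 30% with cell ATP level not reduced by more than half and red fluorescence within 50% of control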; note: strong numbers were not always called active
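Assay system: HT1080 cells carrying an RFP-PRO-GFP reporter | Dosing: Single dose of 20 µM compound, 1% DMSO final | Incubation: Cells overnight before dosing, compound overnight, 37 °C, 5% CO2 | Evaluation: GFP/RFP fluorescence ratio | Control set: DMSO and RFP-L50D-GFP cell wells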
HIV Env fusion = HIV envelope-mediated fusion inhibition | HeLa-JRFL Env/CEM21 cell fusion, luciferase | AID 651610 | 360,000 tested, 1.1% active | inhibition, % at 12.3 µM;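 active = mean replicate inhibition score of at least 50 and every replicate individually at or above 50; inconclusive = only one of the two criteria met; inactive = mean below 50 and not all replicates reaching 50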;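 note: 0% = plate neutral controls and 100% = maraviroc near 300 nM; one replicate is shown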
Rce1 inhib = yeast Ras-converting enzyme inhibition; AID 2563; Q03530; yeast membranes, quenched prenylated peptide cleavage fluorescence; 290,000 tested, 0.27% active; calls only;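 active = fall in fluorescence gain of 50% or more versus controls, with final raw signal at or below 3038400; inconclusive = same 50% fall but final raw signal above 3038400; inactive = fall in fluorescence gain under 50%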;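 note: plate controls were neutral control wells for no effect and wells lacking membranes for full effect; tested at 10 µM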
Target sequence (Q03530 whole entry, looked up): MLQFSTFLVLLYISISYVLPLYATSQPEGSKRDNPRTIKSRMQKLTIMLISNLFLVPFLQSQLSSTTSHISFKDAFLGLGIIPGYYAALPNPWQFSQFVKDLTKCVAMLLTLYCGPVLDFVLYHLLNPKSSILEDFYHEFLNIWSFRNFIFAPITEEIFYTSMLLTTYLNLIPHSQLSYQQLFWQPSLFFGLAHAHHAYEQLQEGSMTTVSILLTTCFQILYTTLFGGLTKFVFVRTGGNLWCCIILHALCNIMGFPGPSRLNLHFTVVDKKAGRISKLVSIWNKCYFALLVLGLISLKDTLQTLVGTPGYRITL
eIF4H inh retest = second read-out of eIF4H inh, no call of its own (marks repeat the call); inhibition, %; compound at 20 µM; confirmation average;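 mean of two retest wells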
PABP FP inh retest = also measured in PABP FP inh; calls as there; inhibition, %; compound at 20 µM; confirmation repeats;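 mean of two retest wells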
MT1-MMP act inh RFP = second read-out of MT1-MMP act inh, no call of its own (marks repeat the call); RFP signal change, %; measured here: RFP expression control read;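 0 = vehicle wells; hits needed this value within 50% of zero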
The depositor's hits bear a star; i = inactive; ? = inconclusive; . = not tested or not shown.

SMILES	CSC inhib	PABP FP inh	eIF4H inh	Yeast UUG start	MT1-MMP act inh	MT1-MMP act inh RFP	HIV Env fusion	Rce1 inhib	others
COc1ccccc1OCC(=O)NC1CCSc2ccccc21 (stereo unspecified)	.	.	.	1.6	3.6	-3.4	11.1	.
OC(C1=CC(=Cc2ccncc2)c2ccccc21)c1ccncc1 (stereo unspecified)	.	.	.	-9.1	11.2	-25.2	31.5	.
CC(=O)N1CCN(S(=O)(=O)c2cccc(C(=O)NCc3ccc(F)cc3)c2)CC1	-0.2	.	.	-6.5	8.1	-6.0	3.8	.
Cc1csc(CNc2ncnc3ccc(-c4ccc5c(c4)OCCO5)cc23)c1	22.2	.	.	1.1	8.2	-1.7	48.6	.
COCCCN(CC(=O)Nc1ccc(N2CCOCC2)cc1)S(=O)(=O)c1ccccc1	-8.5	12.5	-3.9	-1.9	-0.9	-0.1	12.9	i
Cc1ccc(NC(=O)C2CCCN(c3cnccn3)C2)c(C)c1 (stereo unspecified)	-3.1	-11.1	-6.7	9.6	-1.0	0.2	-8.9	i
COc1ccccc1CNC(=O)c1cc(C(C)C)nc2ccccc12	-1.6	-3.2	-2.3	1.4	-1.0	-1.5	18.8	i
C/C(=N/Oc1nc(C)cc(C)n1)c1ccc(Br)cc1	10.7	8.7	-0.8	.	3.1	-0.4	.	i
CCOCCCNC(=S)N1CCN(Cc2ccco2)CC1	.	-18.5	-0.2	.	-2.8	2.3	3.2	i
C=CCn1c(SCC(=O)NCC2CCCO2)nc2scc(-c3ccc(OC)cc3)c2c1=O (stereo unspecified)	-8.2	-5.5	-1.9	-6.4	3.2	-3.5	7.8	i
COc1cc(C(=O)NCCCCc2ccccc2)cc(OC)c1OC	-4.3	7.5	1.9	-5.7	6.4	0.5	10.3	i
O=C(CCSCCc1ccccn1)Nc1cc(F)ccc1F	-1.8	-1.1	0.6	-11.9	-0.4	3.9	6.0	i
Cc1[nH]nc2nc(SCC(=O)NCCC3=CCCCC3)n(-c3ccc(Br)cc3)c(=N)c12	56.5	-10.0	-17.0	-13.9	-2.6	-6.4	43.3	i
COc1ccc(COCC(O)CN2CCCC(C(F)(F)F)C2)cc1 (stereo unspecified)	.	1.1	-1.8	-3.4	0.8	2.4	3.1	i
O=C(CC(C(=O)O)P(=O)(c1ccccc1)c1ccccc1)c1ccccc1 (stereo unspecified)	-5.3	-0.2	-3.7	21.4	-2.8	1.6	-3.6	i
Cc1c(C(=O)NCCn2ccc3ccccc32)cccc1[N+](=O)[O-]	7.4	-9.3	-5.8	-8.3	1.9	2.9	.	i
O=C1/C(=C/c2ccco2)SC(=S)N1CC1CCCO1 (stereo unspecified)	2.4	39.4	74.4*	-21.7	7.5	20.3	-22.6	i	eIF4H inh retest=72.0*;PABP FP inh retest=8.9
O=C(NNC(=O)c1cc(Cl)ccc1O)c1cccc(S(=O)(=O)N2CCOCC2)c1	-3.7	.	.	-15.1	6.0	-1.9	5.2	i
CC1=C(C)CC(C(=O)NNC(=O)c2cccc(Cl)c2)C(C(=O)O)C1 (stereo unspecified)	-18.1	-0.3	-1.0	-21.5	-11.1	-1.8	-4.0	i
CCCCOc1ccc(N(CC(=O)NC(C)(C)CC)C(=O)CCC(=O)Nc2ccccn2)cc1	.	10.2	-6.3	-0.3	-0.9	0.3	-12.3	i

Already shown: entries from further up.
SMILES	CSC inhib	PABP FP inh	eIF4H inh	Yeast UUG start	MT1-MMP act inh	MT1-MMP act inh RFP	HIV Env fusion	Rce1 inhib	others
COc1ccc(COCC(O)CN2CCCC(C(F)(F)F)C2)cc1 (stereo unspecified)	.	1.1	-1.8	-3.4	0.8	2.4	3.1	i
O=C(CC(C(=O)O)P(=O)(c1ccccc1)c1ccccc1)c1ccccc1 (stereo unspecified)	-5.3	-0.2	-3.7	21.4	-2.8	1.6	-3.6	i
Cc1c(C(=O)NCCn2ccc3ccccc32)cccc1[N+](=O)[O-]	7.4	-9.3	-5.8	-8.3	1.9	2.9	.	i
O=C1/C(=C/c2ccco2)SC(=S)N1CC1CCCO1 (stereo unspecified)	2.4	39.4	74.4*	-21.7	7.5	20.3	-22.6	i	eIF4H inh retest=72.0*;PABP FP inh retest=8.9
O=C(NNC(=O)c1cc(Cl)ccc1O)c1cccc(S(=O)(=O)N2CCOCC2)c1	-3.7	.	.	-15.1	6.0	-1.9	5.2	i

Next section
SMILES	CSC inhib	PABP FP inh	eIF4H inh	Yeast UUG start	MT1-MMP act inh	MT1-MMP act inh RFP	HIV Env fusion	Rce1 inhib	others
CCOC(=O)C1CCN(C(=O)c2cccc(S(=O)(=O)NCc3ccccc3)c2)CC1	7.4	.	.	0.2	0.7	0.8	.	.
CN(c1ccccc1)S(=O)(=O)c1cc(C(=O)Nc2nc3ccccc3[nH]2)ccc1Cl	30.8	-5.2	-10.0	.	-6.2	-22.7	-0.3	i
CC(=O)NCCc1cnc[nH]1	-8.7	-11.2	-2.8	-9.8	3.2	1.0	.	i
COc1ccc(-n2c(C)cc(C(=O)Cn3nnc4ccccc4c3=O)c2C)cc1	18.7	6.8	1.6	-15.5	1.2	-8.0	14.7	i
CCSc1nc2sc3c(c2c(=O)n1-c1ccc(C)cc1)CCN(C)C3	.	-1.4	-3.6	7.6	-6.0	-6.4	-3.2	i
CCc1ccc(CNC(=O)C2CC(=O)N(C3CCCC3)C2)cc1 (stereo unspecified)	14.8	2.5	-5.9	-7.8	-2.1	-0.9	1.2	i
O=C(O)c1c[nH]c2c(C(F)(F)F)cccc2c1=O	0.1	7.4	2.8	-16.6	-0.6	-1.8	-31.8	i
Cc1c(F)cccc1NS(=O)(=O)c1ccc2c(c1)c(=O)n(C)c(=O)n2C	-2.3	7.6	3.3	7.6	-4.5	1.9	1.1	.
CSCCC(NC(=O)c1ccco1)C(=O)N1CC(C)OC(C)C1 (stereo unspecified)	-4.8	.	.	-20.9	-4.4	-2.0	.	.
CCN(CC)S(=O)(=O)c1ccc(NC(=O)c2cccc3c2C(=O)N(CCOC)C3)cc1	-1.9	-7.4	1.3	9.5	-6.9	1.2	6.6	i
CCC(C(=O)NC1CC(C)(C)NC(C)(C)C1)c1ccccc1 (stereo unspecified)	-16.3	0.6	-2.9	-18.1	-0.9	0.1	-31.4	i
CCc1cc2c(NCc3ccccc3)nc(C)nc2s1	11.6	7.0	-3.0	-1.1	-2.3	-21.0	21.4	i
CCCCN(C(=O)c1cccc(S(=O)(=O)N2CCN(C)CC2)c1)c1c(N)n(CCCC)c(=O)[nH]c1=O	-15.4	.	.	.	4.2	2.0	-8.5	i
CC[C@H](C)[C@H]1CNC(=S)N1CC1CCN(CCC23CC4CC(CC(C4)C2)C3)CC1	.	.	.	-10.1	0.9	-1.3	-12.9	.
O=C(N/N=C/c1ccc([N+](=O)[O-])o1)c1ccc(NS(=O)(=O)c2cccs2)cc1	-17.0	?	?	16.4	-12.7	-19.9	7.8	i
CCn1cc([N+](=O)[O-])c(C(=O)Nc2c(C)nn(Cc3cccc(F)c3)c2C)n1	6.3	30.8	4.2	.	-0.1	3.5	24.1	i
ONC(=Nc1ccc(Cl)cc1)c1ccccc1Cl	-7.3	6.5	2.6	-12.4	-0.5	-0.9	-10.2	i
COC(=O)c1c(-c2ccc(OC)cc2)oc2ccccc12	13.0	-3.0	-9.3	-17.0	-1.8	0.5	-13.0	?
CC(OC(=O)c1ccc(NC(=O)CC#N)cc1)C(=O)NC(=O)NC1CCCCC1 (stereo unspecified)	1.3	-1.6	6.9	-22.4	0.9	-0.1	.	i
COc1ccc(CCNC(=O)CN2CCC(C(N)=O)CC2)cc1	-14.6	-12.5	-4.8	-17.6	0.7	-0.6	-23.8	i
Cc1ccc(NC(=O)CSc2nnc3ccc(-c4cccnc4)nn23)cc1	-2.4	.	.	.	-7.0	-0.1	.	i
COc1ccc(NC(=O)c2cc(-c3cccnc3)nc3ccc(C)cc23)cc1OC	.	-0.1	-2.9	21.1	-6.2	-0.5	-79.3	.
CCC(Sc1nc2ccccc2s1)C(=O)Nc1cc(C)on1 (stereo unspecified)	5.0	0.4	0.2	-6.5	-0.3	-5.8	.	i
CCCCNC(=O)CCCCCn1c(=O)[nH]c2cc(OC)c(OC)cc2c1=O	-7.7	9.3	2.2	-21.5	4.9	0.5	1.2	i
CC(=O)c1cccc(NC(=O)C2Cc3c(-c4ccco4)ccnc3O2)c1 (stereo unspecified)	.	.	.	2.0	-2.8	-13.3	18.5	.
O=C(NC1CC1)C1CCN(C2CCN(C(=O)CSc3ccccc3)CC2)CC1	6.6	-3.4	6.3	-14.8	0.9	9.4	-1.3	i
O=C1C2C3C=CC(C3)C2C(=O)N1c1cccc2ccccc12 (stereo unspecified)	-14.2	-1.9	-6.0	-5.4	0.7	1.2	-4.5	i
O=C(N/N=C/c1ccc(N2CCOCC2)o1)c1cccc(F)c1	-9.7	-9.0	5.8	.	4.1	11.8	-2.8	i
Cc1ccccc1N1CC(C(=O)O)CC1=O (stereo unspecified)	.	1.9	0.8	-5.5	4.0	-1.9	4.0	i
Cc1c(Cl)c([N+](=O)[O-])nn1CCCC(=O)Nc1cccc(O)c1	-4.4	-13.4	-1.2	.	4.3	3.4	10.5	i
COc1ccc(CCNC(=O)CCCn2c(SCC(N)=O)nc3cc4c(cc3c2=O)OCO4)cc1OC	-5.9	1.0	-2.4	.	.	.	7.5	i
Cc1ccc(-c2ccc(CCC(=O)O)n2NC(=O)c2ccco2)cc1	-1.4	-2.7	-2.1	-10.2	0.3	1.5	.	i
Cc1cc(C(=O)Cn2cncn2)c(C)n1CCc1ccc(F)cc1	-0.3	-1.5	3.6	2.2	-9.4	-3.7	-5.4	i
Cc1ccc(NC(=O)Nc2cc(Cl)ccc2C2COC(=O)C2=N)cc1 (stereo unspecified)	-10.8	-15.7	-11.4	.	-0.9	5.7	9.8	i
C=CCNC(=O)/C(C#N)=C/c1c(N2CC(C)OC(C)C2)nc2ccccn2c1=O (stereo unspecified)	-11.0	-10.6	4.2	.	-4.5	-0.7	.	i
ClCCn1cnc2c(SCc3ccccc3Cl)ncnc21	.	.	.	-5.7	3.0	-0.9	-10.7	.
COc1cc2c(cc1OC)C(CNC(=O)C=Cc1ccccc1)C2 (stereo unspecified)	.	.	.	-36.6	3.6	6.9	15.2	.
CCOP(=O)(OCC)C(Nc1ccc(F)cc1)c1ccccc1 (stereo unspecified)	-4.5	0.1	12.4	-3.6	-4.0	0.8	19.9	i
Cc1ccc(NC(=O)CSc2nnc(-c3ccco3)o2)cc1	3.4	-5.9	-3.6	.	-1.8	2.0	12.0	i
COc1ccc(N2CCN(c3ccc(Cl)nn3)CC2)cc1	-0.3	76.2	0.6	.	-1.4	-3.8	4.9	i	eIF4H inh retest=-2.2;PABP FP inh retest=5.7
CC(C)c1ccc2c(c1)C(N1CCN(C)CC1)Cc1cccnc1S2 (stereo unspecified)	-2.7	.	.	.	-8.1	-9.6	0.0	i
CCOC(=O)CSc1nc2c(sc(=S)n2-c2ccc(OCC)cc2)c(=O)[nH]1	11.4	-5.0	2.6	-7.0	-2.3	-0.4	10.0	i
COc1ccc2[nH]c(C)c(CCNC(=S)Nc3cccc(C)c3C)c2c1	-5.6	19.7	4.6	-25.2	4.5	-7.4	11.7	i
CCc1noc(N)c1C(=O)Nc1ccc(Cl)cc1	-13.8	7.7	-4.0	-39.7	-2.5	1.7	-6.1	i
